V. cholerae QS = Vibrio cholerae quorum sensing activators, luminescence (AID 686977) | V. cholerae quorum sensing reporter, luminescence, 6 h; higher luminescence means a stronger effect; most inactives read 0 | luminescence at 50 µM unless noted; hits with a dose series show EC50 in µM | 9,400 tested, under 10 active;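 active = light above mean plus 3 SD and confirmed in a dose series; inconclusive = above that limit without a clear retest; inactive = below it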;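 also: raw light counts without normalisation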
Numbers without * were called inactive; ? = inconclusive; [ ] = remark or other dose. The list is partial; the hit share may differ from the screen's.

SMILES	V. cholerae QS
COCCCNC(=O)C(C#N)c1nc2ccccc2nc1N1CCCC1 (stereo not drawn)	0
Cc1c(N=Cc2c(O)n(CCc3ccc(F)cc3)c(=O)[nH]c2=O)c(=O)n(-c2ccccc2)n1C	0
COC(=O)COc1ccc(S(=O)(=O)NCc2cccnc2)cc1C	0
Cc1nn(CCCC(=O)N2CCc3ccccc3C2)c(=O)c2cc3sccc3n12	0
CS(=O)(=O)n1nc(OC(=O)c2cccc3ccccc23)cc1N	0
O=C(c1ccc(COc2ccccc2Cl)o1)N1CCN(c2ccccc2)CC1	40
CCOC(=O)N1CCN(c2c(N3CCN(c4cc(C)ccc4C)CC3)c(=O)c2=O)CC1	0
CCOC(=O)c1sc2cccc(F)c2c1N	160
N=C(N)N1CCc2ccccc2C1	0[10 µg/mL]
Cc1ccc2c(c1)NC(=O)C(CC(=O)NCCN(C)C)O2 (stereo not drawn)	0
CC(C)(C)c1ccc(S(=O)(=O)N2CCCCC2C(=O)NCc2ccccn2)cc1 (stereo not drawn)	0
Cc1ccc(-c2n[nH]c(=S)n2/N=C/C=C\c2ccccc2[N+](=O)[O-])cc1	0
Cc1nn(C2CCS(=O)(=O)C2)c(Cl)c1/C=C/C(=O)OCC(=O)Nc1ccccc1OC(F)F (stereo not drawn)	0
O=C(CN1CCC(c2nc3ccccc3[nH]2)CC1)NCc1ccc2c(c1)OCO2	0
S=C(c1ccc(Br)cc1)N1CCN(Cc2ccccc2)CC1	0
Cc1ccsc1C(=O)Nc1ccc(C(=O)O)cc1	0
CCOC(=O)C1CCN(C(=O)Nc2ccc(OC)c(OC)c2)CC1	0
CCOc1ccc(C2CC(c3cccc(OC)c3)Nc3ncnn32)cc1 (stereo not drawn)	0
O=C(CC(=O)N1CCN(c2ccccn2)CC1)Nc1ccc2nc3n(c(=O)c2c1)CCCCC3	0
Cc1cccc(CS(=O)(=O)Cc2ccc(C(=O)NCCCN3CCOCC3)o2)c1	0
Cc1oc(-c2ccccc2F)nc1CS(=O)(=O)CC(=O)NCc1ccco1	240
Cc1ccsc1C=Nc1ccc(O)cc1	40
Cc1c(NC(=O)c2ccccc2NS(=O)(=O)c2ccc(Br)cc2)c(=O)n(-c2ccccc2)n1C	0
CC(CN(C)C)CN1c2ccccc2CCc2ccccc21 (stereo not drawn)	0[10 µg/mL]
COc1ccc(NC(=O)CSc2nnc(-c3ccccn3)n2-c2ccccc2)cc1OC	0
CC12CC3CC(C)(C1)CC(C(=O)NC(=S)N1CCOCC1)(C3)C2	0
O=c1oc2ccccc2c2nccnc12	0
CC(C)=C1SC(N2CCCCC2)=NC1=O	160
C[N+]1(C)C2CC[C@H]1CC(OC(=O)C(CO)c1ccccc1)C2 (stereo partly drawn)	?
Cc1onc(-c2c(Cl)cccc2Cl)c1C(N)=O	0
S=C1NC(c2ccccc2)=NCN1c1ccc(Br)cc1	0
Cc1ccc(-c2nnc(SCC#CCOC(=O)c3cccs3)o2)cc1	0
CS(=O)(=O)c1ccccc1COC(=O)Nc1ccc(Cl)cc1	?
Nc1nonc1-c1noc(CCCCCN2C(=O)c3ccccc3C2=O)n1	0
CCOc1ccccc1OCCCCCc1c(C)n[nH]c1C	0
CCOC(=O)N1CCC(NC(=O)c2ccc(NC(=O)C3CCCO3)cc2)CC1 (stereo not drawn)	0
Cc1cc(C(=O)CSc2nnc(-c3ccc(F)cc3)o2)c(C)n1CC1CCCO1 (stereo not drawn)	0
CCOC(=O)CC1=C(C(=O)OCC)C(c2ccc(C)o2)C(C#N)=C(N)O1 (stereo not drawn)	0
Cc1cccc(Oc2coc3cc(OC(=O)c4cccs4)ccc3c2=O)c1	0
CCOC(=O)N1CCN(C(=O)C2CCCN(S(=O)(=O)c3cccnc3)C2)CC1 (stereo not drawn)	0
Cc1c(N(C)C)c(=O)n(-c2ccccc2)n1C	0[10 µg/mL]
COc1ccccc1N1CCN(C(CNC(=O)c2ccco2)c2cccnc2)CC1 (stereo not drawn)	0
Cc1[nH]c2ccccc2c1SCC(=O)N1CCCc2ccccc21	0
CC(C)CCOC(=O)C1C2C=CC3(CN(Cc4cccs4)C(=O)C13)O2 (stereo not drawn)	0
CC(Cc1cccs1)NC(=O)Nc1ccc(Cl)cc1 (stereo not drawn)	0
Cc1ccccc1C(=O)Nc1nnc(-c2ccc(F)cc2)o1	0
O=C(NCCN1CCCC1)C1CCN(S(=O)(=O)N2CCC3(CC2)OCCO3)CC1	0
O=C(Nc1nnc(C2CCCCC2)s1)c1cccs1	0
CCOC(=O)c1c(C)oc2c1c(C(c1cccnc1)N1CCCCC1)c(O)c1ccccc12 (stereo not drawn)	0
C/C(=C\C(=O)c1ccccc1)NNc1nc2ccccc2s1	0
O=S(=O)(c1ccc(-c2csc(-c3cccnc3)n2)cc1)N1CCCC1	0
CN1CCN(c2cc3c(c4c2[nH]c2ccccc24)C(=O)CC(C)(C)C3)CC1	40
COC(=O)C1(C)NC(c2cccs2)C2C(=O)N(c3ccc(F)cc3)C(=O)C21 (stereo not drawn)	40
Cc1ccc(Cn2c(=N)n(CC(O)COc3ccccc3)c3ccccc32)cc1 (stereo not drawn)	0
O=C(c1ccccc1)N1CC(COc2ccccc2)OC(c2ccco2)O1 (stereo not drawn)	40
COc1cccc(N2CCN(C(=O)c3[nH]c(C)c(C(C)=O)c3C)CC2)c1	40
O=C(c1ccccc1)C1C(=O)c2ccccc2C1=O	40
Cc1ccc(NC(=O)c2cc3nc(C)cc(C)n3n2)cc1	0
C=CCn1c(O)c(C=NCCN2CCNCC2)c(=O)[nH]c1=O	40
O=C(CSc1ncn[nH]1)Nc1ccnc2ccccc12	40

A stretch from the list above, for reference:
SMILES	V. cholerae QS
Cc1ccc(NC(=O)c2cc3nc(C)cc(C)n3n2)cc1	0
C=CCn1c(O)c(C=NCCN2CCNCC2)c(=O)[nH]c1=O	40
O=C(CSc1ncn[nH]1)Nc1ccnc2ccccc12	40

Later entries.
SMILES	V. cholerae QS
C=CCn1c(SCC(=O)NCc2cccs2)nnc1C1CCCCC1	0
COc1ccc(CC(=O)Nc2cc(=O)n(C)c(=O)n2C)cc1	40
C#CC(C)(C)NC(=O)CSc1nc2c(c(=O)n(C)c(=O)n2C)n1CCCC	0
COc1ccc(OCCCC(=O)Nc2nnc(C3CCCO3)s2)cc1 (stereo not drawn)	0
O=C(NC(=O)c1cccc(F)c1)OC[C@@H]1CCCN2CCCC[C@H]12	40
O=C(Nc1ccc([N+](=O)[O-])cc1Cl)c1cc(Cl)ccc1O	240[10 µg/mL]
CCOC(=O)C1(C(=O)O)NC(=O)CC1c1ccccc1 (stereo not drawn)	40
COCCn1c(SCC(=O)N2CCCc3ccccc32)nc2c(c1=O)SC(C)C2 (stereo not drawn)	0
Cc1ccccc1-c1nnc(SCc2ccccc2F)o1	0
COc1cccc(-c2nnc(SCC(=O)N3CC(C)CC(C)C3)o2)c1 (stereo not drawn)	40
Cc1ccccc1SCC(=O)Nc1cccc(C#N)c1	40
COc1ccc(Nc2nc(N3CCCCC3)nc3ccccc23)c(OC)c1	40

An excerpt of these results, in CSV form:
molecule,V. cholerae QS
C#CC(C)(C)NC(=O)CSc1nc2c(c(=O)n(C)c(=O)n2C)n1CCCC,0
CCOC(=O)C1(C(=O)O)NC(=O)CC1c1ccccc1 (stereo not drawn),40
COc1ccc(OCCCC(=O)Nc2nnc(C3CCCO3)s2)cc1 (stereo not drawn),0
COc1cccc(-c2nnc(SCC(=O)N3CC(C)CC(C)C3)o2)c1 (stereo not drawn),40

Molecules listed so far that have a cyano group, in the order listed:
SMILES	V. cholerae QS
COCCCNC(=O)C(C#N)c1nc2ccccc2nc1N1CCCC1 (stereo not drawn)	0
CCOC(=O)CC1=C(C(=O)OCC)C(c2ccc(C)o2)C(C#N)=C(N)O1 (stereo not drawn)	0
Cc1ccccc1SCC(=O)Nc1cccc(C#N)c1	40

The list goes on:
SMILES	V. cholerae QS
CNS(=O)(=O)c1cccc(C(=O)Nc2cccnc2)c1	280
CCOC(=O)c1c(C)n(OCc2ccccc2)c2ccc3c(no[n+]3[O-])c12	0
Cc1nc2ccc(N3C(=O)CCC3=O)cc2[nH]1	40
N#Cc1cc(N)c(Nc2ccccc2)cc1C#N	0
O=C(NC1=NCCS1)c1sc2ccccc2c1Cl	0
CCC(C)Sc1nc2c([nH]c3ccccc32)c(=O)n1C (stereo not drawn)	0
O=C(Nc1ccccc1SCC1CSc2nc3ccccc3c(=O)n21)c1ccccc1Cl (stereo not drawn)	40
COc1ccc(-n2c(SCC(=O)Nc3ccccc3)nc3c(c2=O)SCC3)cc1	160
CN1CCN(CCNC(=O)c2cc3c(=O)n(C)c4ccccc4c3n2C)CC1	0
C#C[C@]1(O)CC[C@H]2[C@@H]3CCc4cc(OC)ccc4[C@H]3CC[C@@]21C	0[10 µg/mL]
O=C(c1c(F)c(F)c(F)c(F)c1F)N(Cc1ccccc1)Cc1ccccc1	0
COc1cc(C(c2sc3nc(C)nn3c2O)N2CCc3ccccc3C2)cc(OC)c1OC (stereo not drawn)	0
COc1ccc(-c2nsc(SCC(=O)Nc3cc(C)on3)n2)cc1	0
Cc1cc(C(=O)CSc2nc(N)cc(=O)[nH]2)c(C)n1CCc1ccc(F)cc1	0
CCCc1nnc(SCC(=O)Nc2ccc(OCC)cc2)n1N	0
COc1cccc(-c2nnc3sc(-c4ccco4)nn23)c1	0
CCOc1ccc(OCC)c(NC(=O)C2CCCN2S(=O)(=O)c2cccc3cccnc23)c1 (stereo not drawn)	0
CCCCc1c(C)c(C#N)c2[nH]c3ccccc3n2c1=O	40
CCOC(=O)N1CCC(Nc2ncnc3c2cnn3-c2ccc(C)cc2C)CC1	0
c1ccc2c(c1)ccc1nnc(SCc3ccc4c(c3)OCCO4)n12	0
Cc1sc2ncn(CC(=O)NCC(=O)N3CCC4(CC3)OCCO4)c(=O)c2c1C	40
O=C1C(=O)N(CCO)C(c2ccccc2)/C1=C(\O)c1ccccc1 (stereo not drawn)	40
C[N+](C)(CCOc1ccccc1)Cc1ccccc1	0[10 µg/mL]
Cc1c(NC(=O)C2CC(c3ccc(F)cc3)=NO2)c(=O)n(-c2ccccc2)n1C (stereo not drawn)	0
CC1CCC(NC(=O)CN2CCCN(Cc3ccc(F)cc3Cl)C2=O)CC1 (stereo not drawn)	40
CSc1nnc2c(n1)OC(c1ccc(C(=O)O)cc1)N(C(C)=O)c1ccccc1-2 (stereo not drawn)	40
CC1CN(C(=O)/C=C/c2ccc3c(c2)OCO3)CC(C)O1 (stereo not drawn)	40
CCN(CC)S(=O)(=O)c1ccc(NC(=O)C(C)N(c2ccc(OC)cc2)S(C)(=O)=O)cc1 (stereo not drawn)	0
O=C(O)CCC(=O)N1CCc2cc(S(=O)(=O)N3CCC(Cc4ccccc4)CC3)ccc21	40
O=C(c1ccc(CNc2c(NC3CCCCC3)c(=O)c2=O)cc1)N1CCc2ccccc21	200
CSc1nc(C)cc(SCCO)n1	40
COc1ccc(-n2c(Cc3cccn3C)nnc2SCC(=O)Nc2cccc(C)c2C)cc1	0
CN(C)S(=O)(=O)c1ccc(C(=O)Oc2cc(=O)[nH]c3ccccc23)cc1	40
CCn1c(C(C)NC(C)=O)nc2ccccc21 (stereo not drawn)	40
Fc1ccc(-c2nnc3ccc(N4CCc5ccccc5C4)nn23)cc1	0
CC(=O)Cc1nsc(NC(=O)C2Cc3ccccc3C(=O)O2)n1 (stereo not drawn)	0
Cc1ccc(-n2c(Cc3cccn3C)nnc2SCC(=O)NC2CCCCC2)cc1	0
COc1ccc(Cn2nnc3c(=O)[nH]c(C(=O)NCCc4ccc(F)cc4)nc32)cc1OC	0
CCC(C)NC(=O)N[C@@H](CCSC)C(=O)OC (stereo partly drawn)	40
O=C(O)CCc1ncc(C(F)(F)F)cc1Cl	80
CCOC(=O)CC1C(=O)NCCN1C(=O)c1c(F)cccc1F (stereo not drawn)	0
O=C(O)c1cc(=O)c2c(OCC(O)COc3cccc4oc(C(=O)O)cc(=O)c34)cccc2o1	0[10 µg/mL]
Cc1cc(C)n(C(C[N+](=O)[O-])c2ccc(Cl)cc2)n1 (stereo not drawn)	40
NC(=O)COc1ncn(-c2ccccc2)n1	0
CCN1CCN(C(c2cccs2)C(C)NC(=O)c2ccccc2OC)CC1 (stereo not drawn)	0
Cc1csc(NC(=O)CSc2nc(C(C)C)nc3c2c(=O)n(C)c(=O)n3C)n1	0
O=C(CN1CCN(S(=O)(=O)c2ccccc2)CC1)Nc1cccc(C(F)(F)F)c1	0
Cc1noc(/C=C/N(C)C)c1S(=O)(=O)N1CCN(c2ccccc2)CC1	0
Cc1cccc(NC(=O)CN(C)S(=O)(=O)c2cccc3cccnc23)c1	0
Cc1ccc(-n2c(SCC(N)=O)nnc2-c2cccnc2)c(C)c1	0
CCCCc1nn(-c2cc(Cl)ccc2OC)c2c1C(=O)CCC2	?
CCOC(=O)C1=C(C)N=C2SC(C)C(=O)N2C1c1ccc(OCC)c(OCC)c1 (stereo not drawn)	0
COC(=O)c1ccc(NC(=S)NCCc2cccc(C)c2)cc1	0
COc1ccc(CCNC(=O)CSc2ccc(-c3ccccc3)nn2)cc1OC	40
COc1ccc(OC)c(S(=O)(=O)N2CCC(C(=O)NCCc3ccc(OC)c(OC)c3)CC2)c1	40

Screening data: PubChem, Southern Research Specialized Biocontainment Screening Center
